Mtb growth = Mycobacterium tuberculosis H37Rv growth inhibition, cell based, confirmatory dose response (AID 1949); 100,000 compounds, 1.6% hits; most inactive calls were filed without a number and no value below 0 was filed; one-dose inhibition, % at 10 µg/mL; IC50 in µg/mL for titrated hits;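 active means confirmed in a dose series; inconclusive means about 50% or more but not retested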;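 further: bacteria grown 7 days with compound before Alamar blue readout; 0% = untreated bacteria and 100% = reference antibiotic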
* hit, by the source's call; i = inactive; ? = inconclusive. Not all compounds are listed. The share of hits here may be higher or lower than overall.

| compound | Mtb growth |
| --- | --- |
| CCc1nc2ccccc2n1CC(O)COc1ccc(I)cc1 (stereo not given) | 1.97µg/mL* |
| O=C(NCc1cccs1)c1cc(-c2cccc(Cl)c2)nc2ccccc12 | i |
| O=C(Nc1cccc(C(=O)N2CCOCC2)c1)c1cccnc1 | i |
| Cc1ccc(N/C(N)=N\c2nc(CSc3ccc(Cl)cc3)cc(=O)[nH]2)cc1C | i |
| CC(C)c1cc(I)ccc1NC(=O)CSc1nnc(-c2ccc(Cl)cc2)n1C | 4.1% |
| CCc1ccc(-c2nn(-c3ccccc3)cc2C(=O)O)cc1 | i |
| CN(c1ccccc1C(=O)Nc1ccc(F)c(Cl)c1)S(=O)(=O)c1ccccc1 | i |
| COc1cc(Br)ccc1OCC(=O)N=Nc1c(O)[nH]c2c(Br)cc(Br)cc12 | i |
| Cc1ccc2c(c1)CCCN2C(=O)C1CCCO1 (stereo not given) | i |
| CC1(C)Cc2c(c(N3CCOCC3)nc3sc4c(c23)N2C(=O)CCC2(C)NC4=O)CO1 (stereo not given) | i |
| COc1nc(C)ccc1-c1noc(-c2cccnc2)n1 | i |
| Cc1ccc(-c2nc(NC(=O)C3CCCCC3)sc2C)cc1 | i |

(more compounds)
| compound | Mtb growth |
| --- | --- |
| COc1cc(NC(=O)c2cccc(C)c2[N+](=O)[O-])c(OC)cc1Cl | i |
| CCC(C)c1ccccc1OCC(=O)Nc1ccc(S(=O)(=O)Nc2ccc(OC)cc2)cc1 (stereo not given) | 14.0% |
| Cc1cc(SCC(=O)NCc2ccccc2)nc2ccccc12 | 8.0% |
| COc1cc(NS(=O)(=O)c2cccs2)cc(OC)c1 | 2.4% |
| COc1cccc(CN2C(=O)C3(C(C#N)=C(N)OC4=C3C(=O)CCC4)c3ccccc32)c1 (stereo not given) | 1.6% |
| Cn1c(=O)c2c(nc(SCC(=O)Nc3ccc(F)cc3)n2Cc2ccc(Cl)cc2)n(C)c1=O | i |
| O=C(C(=O)N1CCOCC1)c1cn(CCCOc2ccccc2)c2ccccc12 | 2.1% |
| CC(NC(=O)C(=O)NC1CCCCC1C)c1ccccc1 (stereo not given) | 3.5% |
| CC1(C)CC(=O)C2=C(C1)OC(c1ccncc1)C(C#N)=C2N (stereo not given) | i |
| Cc1ccc(-n2c(SCC(=O)Nc3cccc(Br)c3)nnc2-c2ccncc2)cc1 | i |
| COc1ccc(OC)c(NS(=O)(=O)c2ccc(CC(C)C)cc2)c1 | 0.9% |
| Cc1ccc(CSCCNC(=O)c2ccc(NS(C)(=O)=O)cc2)cc1 | i |

More records follow:
| compound | Mtb growth |
| --- | --- |
| O=C(Nc1ccccc1F)c1ccc(Cn2cc(Br)cn2)cc1 | 10.4% |
| Cc1cccc(CN(c2ccccc2C)S(C)(=O)=O)c1 | i |
| O=C1CC(Cc2ccccc2)C(=O)N1c1ncccn1 (stereo not given) | i |
| O=C(O)c1cc(-c2cccnc2)nc2ccccc12 | i |
| Cc1cccc(C)c1OCc1nnc2c3cnn(Cc4ccccc4)c3ncn12 | 2.1% |
| Cc1cc(F)ccc1C(=O)Nc1cccc([N+](=O)[O-])c1 | i |
| Cc1ccc2[nH]c3nc(NN)nnc3c2c1 | 0.6% |
| O=C(c1cccc(F)c1)N1CCN(CCO)CC1 | i |
| O=C(Nc1ccccc1C(=O)O)c1ccc(-c2ccc(Cl)c(Cl)c2)o1 | 9.4% |
| Oc1ccccc1-c1nnc(SCc2ccccc2)n1-c1ccccc1 | i |
| Cc1cc(=O)oc2c(C)c(OCC(=O)c3ccc(N4CCCC4)cc3)ccc12 | 1.0% |
| O=C(CSCc1ccccc1)Nc1ccc(S(=O)(=O)N2CCCC2)cc1 | i |

Fetched by compound from above (2):
| compound | Mtb growth |
| --- | --- |
| Cn1c(=O)c2c(nc(SCC(=O)Nc3ccc(F)cc3)n2Cc2ccc(Cl)cc2)n(C)c1=O | i |
| COc1ccc(OC)c(NS(=O)(=O)c2ccc(CC(C)C)cc2)c1 | 0.9% |

Later entries:
| compound | Mtb growth |
| --- | --- |
| CCSc1nnc(NC(=O)c2ccncc2)s1 | i |
| Cc1ccc(C(=O)CSc2nc3ccccc3c(=O)[nH]2)c(C)c1 | 4.0% |
| CCC(=O)Nc1sc2c(c1C#N)CC(C)(C)NC2(C)C | i |
| CCCCc1cc(=O)oc2cc(OC(C)=O)cc(OC(C)=O)c12 | i |
| COc1ccc(CCNCc2ccc(OCc3cccs3)c(OC)c2)cc1OC | i |
| CCOc1cc(C(=O)Nc2nnc(COC)s2)cc(OCC)c1OCC | i |
| O=C(Nc1ncc(Cc2ccc(F)cc2)s1)c1ccc(Br)cc1 | i |
| CC(=O)C1=C(C)NC(=O)NC1c1ccc2c(c1)OCO2 (stereo not given) | i |
| Cc1cc(=O)n2[nH]c(-c3ccncc3)nc2n1 | i |
| O=C1CCCC2=C1C(c1ccc(OCc3ccccc3)cc1)C1=C(CCCC1=O)O2 | i |
| C=CCNCc1ccc(Oc2cnn(-c3ccccc3)c(=O)c2Cl)c(OC)c1 | 0.5% |
| Cc1ccc(-n2ncc3c(N4CCCC4)ncnc32)c(C)c1 | i |

Other compounds follow.
| compound | Mtb growth |
| --- | --- |
| Cc1ccc(C)c(NS(=O)(=O)c2ccc(-c3ccccc3)cc2)c1 | i |
| COC(=O)c1ccccc1NC(=O)CN(Cc1ccc(Cl)cc1)S(C)(=O)=O | i |
| COc1ccc(-c2nnc(SCCC(=O)O)n2-c2ccccc2)cc1 | i |
| Cc1ccnc(NS(=O)(=O)c2ccc(NC(=O)C(C)Oc3ccc(Cl)cc3C)cc2)n1 (stereo not given) | i |
| O=S(=O)(c1ccc(-c2ccccc2)cc1)N1CCN(c2cccc(Cl)c2)CC1 | i |
| COC(=O)C1=C(C)N=C2SCCC(=O)N2C1/C=C/c1ccccc1 (stereo not given) | i |
| Cc1nn(Cc2ccccc2)c(C)c1NS(=O)(=O)c1ccccc1 | i |
| S=C(Nc1ccc2nsnc2c1)N1CCN(c2ccccn2)CC1 | i |
| CCC(=O)Nc1sc(C)c(C)c1C(=O)Nc1ccc(C)cc1 | i |
| O=C(CN1C(=O)C2C3C=CC(C4CC34)C2C1=O)NCc1ccco1 (stereo not given) | 1.9% |
| CCCCCSc1nc(N2CCCC2)c2c(c1C#N)CC(C)(C)OC2 | 2.1% |
| Cc1ccccc1C(=O)N1CCC(C(=O)N(Cc2ccccc2)Cc2ccccc2)CC1 | 8.9% |

More compounds.
| compound | Mtb growth |
| --- | --- |
| COc1ccc(N(CC(=O)Nc2ccccc2C(N)=O)S(=O)(=O)c2ccccc2)cc1OC | i |
| CC1CCc2c(sc3ncn(CC(=O)N4CCCc5ccccc54)c(=O)c23)C1 (stereo not given) | i |
| COC(=O)c1ccccc1NC(=O)CN(C)S(=O)(=O)c1cc(Cl)ccc1Cl | i |
| Cc1cc(Cl)ccc1OCC(=O)N1CCN(c2ccccc2F)CC1 | 0.3% |
| CC(=O)Nc1ccc2c(c1)ncn2C1CCCCC1 | i |
| COc1ccc(Br)cc1C(=O)Nc1cccc(C)c1C | i |
| CCc1cccc(C)c1NC(=O)C(C)Sc1ccc(C)cc1 (stereo not given) | i |
| COC(=O)c1cc(NC(=O)c2ccc(-c3ccc(Br)cc3)o2)cc(C(=O)OC)c1 | i |
| COc1ccc(Cl)cc1C(=O)NC(=S)Nc1ccc(Br)cn1 | i |
| O=C(OCc1ccccc1)c1ccc(OC(=O)c2ccco2)cc1 | 6.9% |
| CC(=O)Nc1ccc(N2C(=O)CC(N3CCCC4CCCCC43)C2=O)cc1 (stereo not given) | i |
| COc1ccc(N2CCN(S(=O)(=O)/C=C/c3ccccc3)CC2)cc1 | 3.9% |

Going on with the list:
| compound | Mtb growth |
| --- | --- |
| Cc1cc(NC(=O)c2ccccc2)ccc1NC(=O)Cc1ccccc1 | i |
| O=C(NCc1cccnc1)c1cccc(COc2cccc3ccccc23)c1 | ? |
| O=C1c2ccccc2C(=O)N1OS(=O)(=O)c1cc(Cl)c(Cl)cc1Cl | i |
| CCS(=O)(=O)c1nnnn1-c1ccccc1S(C)(=O)=O | i |
| Cc1ccc(S(=O)(=O)CC(=O)c2cccc(I)c2)cc1 | i |
| Cc1cc(C)c(S(=O)(=O)N(C)CC(=O)NC2CC2)c(C)c1 | i |
| O=C(c1ccc(COc2c(F)c(F)cc(F)c2F)o1)N1CCN(c2ccc(Cl)cc2)CC1 | 3.5% |
| CCCCn1c(NCc2cccs2)nc2ccccc21 | ? |
| CC(C)Oc1ccc(NC(=O)COc2ccc(Cl)cc2)cc1 | 22.8% |
| Cc1ccc(CC(=O)Nc2cc(C)ccc2C)cc1 | 0.9% |
| CN(C(=O)COc1ccc(Cl)cc1)c1ccccc1C(=O)O | i |
| CC1CCCCN1C(=O)CSc1nc2sc3c(c2c(=O)n1-c1ccccc1)CCC3 (stereo not given) | 15.2% |

Later entries.
| compound | Mtb growth |
| --- | --- |
| C(=C\c1nc(-c2ccccn2)no1)/c1ccccc1 | 22.2% |
| CCCc1cc(=O)oc2cc(OCc3ccc(F)cc3F)c(Cl)cc12 | i |
| Cc1ccc(C(=O)Nc2ccc(CN3CCOCC3)cc2)cc1Cl | i |
| CC(O)c1cccc(NC(=O)C2C3C=CC(O3)C2C(=O)O)c1 (stereo not given) | i |
| COCCCN1C(=O)c2cccc3c(N4CCCCC4)ccc(c23)C1=O | 31.7% |
| CC(O)c1nc2ccccc2n1CCOc1ccc(Cl)cc1 (stereo not given) | 4.7% |
| COC(=O)c1ccc(COc2ccc3oc(-c4ccc(OC)cc4)cc(=O)c3c2)cc1 | i |
| COC(=O)Cc1c(C)c2ccc(OCC(=O)Nc3ccc(Cl)c(C(F)(F)F)c3)cc2oc1=O | i |
| O=C(Nc1ccc(S(=O)(=O)Nc2ccccn2)cc1)c1ccccc1Cl | i |
| O=C(Nc1nccs1)C1CC(=O)N(c2ccc(Cl)cc2)C1 (stereo not given) | 1.6% |
| C=CCc1cc(C)ccc1OCCn1ccnc1 | ? |
| CCOC(=O)C1=C(C)Nc2ncnn2C1c1cccc(OC)c1OC (stereo not given) | i |

Part of the list above, as labelled records:
> CC(O)c1cccc(NC(=O)C2C3C=CC(O3)C2C(=O)O)c1 (stereo not given)
- Mtb growth: i
> C(=C\c1nc(-c2ccccn2)no1)/c1ccccc1
- Mtb growth: 22.2%

The list continues.
| compound | Mtb growth |
| --- | --- |
| CS(=O)(=O)N(CC(=O)Nc1ccc(F)c(Cl)c1)c1ccccc1F | i |
| O=C1COc2ccc(C(=O)NCc3ccco3)cc2N1 | 3.2% |
| CCN(CC)C(=O)c1ccc(C)c(F)c1F | i |
| COc1ccccc1Oc1nc([N+](=O)[O-])nn1C | i |
| Cc1cc(C=O)c(C)n1-c1ccc(N(C)C)cc1 | i |
| Cn1c(CCNC(=O)c2cccs2)nnc1SCC(=O)Nc1nc2ccccc2s1 | 3.8% |
| COc1ccc(-c2cc(C(=O)NCC3CCCO3)c3ccccc3n2)cc1 (stereo not given) | i |
| Cc1cccc(NC(=O)c2ccc(-c3ccccc3[N+](=O)[O-])o2)c1C | i |
| Cc1cc(=O)oc2c(C)c(OCC(=O)N(C)C)ccc12 | i |
| Cc1ccccc1NC(=O)C1CCN(C(=O)c2cccs2)CC1 | i |
| C=CCc1ccccc1Oc1ccc(C(F)(F)F)cn1 | i |
| CC(NC(=O)c1ccccc1NC(=O)CN(c1ccccc1F)S(C)(=O)=O)c1ccccc1 (stereo not given) | 0.3% |

Next part, starting with the last 4 of the part before.
| compound | Mtb growth |
| --- | --- |
| Cc1cc(=O)oc2c(C)c(OCC(=O)N(C)C)ccc12 | i |
| Cc1ccccc1NC(=O)C1CCN(C(=O)c2cccs2)CC1 | i |
| C=CCc1ccccc1Oc1ccc(C(F)(F)F)cn1 | i |
| CC(NC(=O)c1ccccc1NC(=O)CN(c1ccccc1F)S(C)(=O)=O)c1ccccc1 (stereo not given) | 0.3% |
| Cc1ccc(-c2nnc(N3CCN(S(C)(=O)=O)CC3)c3ccccc23)cc1 | i |
| CSc1ccccc1NC(=O)C(C)N(c1ccccc1)S(C)(=O)=O (stereo not given) | i |
| COc1cccc(OC)c1C(=O)NC(=S)NCc1ccco1 | i |
| COc1ccc(S(C)(=O)=O)cc1S(C)(=O)=O | i |
| CCCC(=O)NC(c1ccc(Cl)cc1)c1cc(Cl)c2cccnc2c1O (stereo not given) | i |
| Cc1c(Cl)cccc1-n1c(-c2ccccc2)n[nH]c1=S | i |
| C/C(NC(=O)c1ccccc1)=C1\OC(=O)C(C)N1C(=O)c1ccccc1 (stereo not given) | i |
| O=C(NCCN=C1NS(=O)(=O)c2ccccc21)c1ccc(S(=O)(=O)N2CCCCC2)cc1 | i |
| COC(=O)C1=CN(C2CCCC2)C=C(C(=O)OC)C1c1cccc(F)c1 | i |
| COc1cc(S(=O)(=O)n2cnc(C)c2)ccc1F | i |
| COC(=O)C1=CN(Cc2ccc(OC)cc2)C=C(C(=O)OC)C1c1cc(OC)ccc1OC | i |
| NC(=O)COc1ccc(NC(=O)OCc2ccccc2)cc1 | i |

(list continues)
| compound | Mtb growth |
| --- | --- |
| CCn1c(SCC(=O)Nc2ccc(C)c(Cl)c2)nnc1-c1ccccc1 | i |
| COC(=O)Cc1c(C)c2cc(Cl)c(OCc3ccc(F)cc3F)cc2oc1=O | i |
| O=Cc1ccc(Sc2nnc(-c3ccccc3)c(-c3ccccc3)n2)o1 | 3.5% |
| COc1ccc2nc(SCC(=O)Nc3cc(C)on3)[nH]c2c1 | 5.7% |
| COCc1nnc(NC(=O)Cc2ccccc2)s1 | i |
| CC(=O)c1ccc(NS(C)(=O)=O)cc1 | i |
| CCOc1cc(C2Nc3ccccc3NC3=C2C(=O)CC(c2cccs2)C3)cc(Cl)c1O (stereo not given) | 0.7% |
| CCNc1cc(N2CCOCC2)ccc1[N+](=O)[O-] | i |
| O=C(CCc1ccc(S(=O)(=O)NC2CCCCC2)cc1)NCC1CCCO1 (stereo not given) | i |
| Cc1cccc(Cc2cnc(NC(=O)/C=C/c3ccccc3Cl)s2)c1 | i |
| CC1(C)CC(NC(=O)CCC2CCCC2)CC(C)(C)N1 | i |
| CCCCOc1cccc(OCCCC)c1C(=O)Nc1cc(C)on1 | i |
| CCC(C(=O)Nc1cccc(C(=O)N2CCOCC2)c1)c1ccccc1 (stereo not given) | i |
| Cc1ccccc1CNC(=O)c1ccc(-c2ccccc2)cc1 | i |
| Cc1ccc(-c2nnc(N3CCOCC3)c3ccccc23)cc1S(=O)(=O)NCc1cccnc1 | 5.0% |
